High-throughput results (PubChem)
VDR inhibitor: Inhibitors of the vitamin D receptor (VDR): qHTS. Vitamin D3 receptor (Homo sapiens), P11473. VDR-SRC2-3 peptide fluorescence polarization, 2 h. Potency, µM, for the others: max response, negative = inhibition, most hits filed as inhibitors. 400,000 tested, 0.93% active; active = well fitted inhibition curve with a large enough effect; inconclusive = small, poorly fitted or top-dose-only effect, or another doubt; inactive = no such curve, though single readings can be large or run the other way; also: series mostly up to about 120 µM
Target sequence (P11473 whole entry, looked up): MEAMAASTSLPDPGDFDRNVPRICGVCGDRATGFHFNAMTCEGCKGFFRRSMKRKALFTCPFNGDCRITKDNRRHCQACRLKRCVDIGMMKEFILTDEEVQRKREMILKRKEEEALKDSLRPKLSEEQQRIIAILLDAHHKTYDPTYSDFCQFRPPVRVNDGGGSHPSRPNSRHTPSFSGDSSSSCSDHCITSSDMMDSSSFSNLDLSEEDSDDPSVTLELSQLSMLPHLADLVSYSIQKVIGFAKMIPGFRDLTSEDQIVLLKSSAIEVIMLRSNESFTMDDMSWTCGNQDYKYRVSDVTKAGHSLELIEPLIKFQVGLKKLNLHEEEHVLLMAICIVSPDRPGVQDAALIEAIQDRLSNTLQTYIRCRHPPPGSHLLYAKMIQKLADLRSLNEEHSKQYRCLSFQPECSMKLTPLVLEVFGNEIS
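Fluorescence polarization assay of small-molecule disruption of VDR binding to coregulator peptide SRC2-3. Compounds and controls pin-transferred, then read after 2 h incubation at ambient room temperature.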
Active calls of the source: *; ? = inconclusive; & = joins results of further samples; [ ] = dose if it differs, or a comment. % is scaled to controls: 0 for no effect and ±100 for the full control effect; potency is read from the fitted curve at half-maximal effect.

VDR inhibitor	structure
-18%	COc1ccc(OCC(=O)NNC(=S)NC(=O)c2ccc([N+](=O)[O-])cc2)cc1
-15%	CCOC(=O)c1nc(-c2ccccc2)sc1C(C)=O
-1%	Cc1ccc(S(=O)(=O)N(CC(=O)Nc2ccccc2C(=O)O)c2ccccc2)cc1
13%	CC(NC(=O)C1CCCN(C(=O)c2ccc(Cl)cc2)C1)c1cccc(C(F)(F)F)c1 (configuration not stated)
24%	Cc1ccc(N2CC(C(=O)NC3=NCCS3)CC2=O)cc1 (configuration not stated)
-12%	COCCn1c(SCC(=O)N2CCC(C)CC2)nc2c(c1=O)SCC2
9%	COc1ccc(-c2ccc3c(c2)[C@@H]2C[C@H]4[C@@H](C(=O)N2CC3)[C@H](C)ON4C)cc1
2%	Cc1cccc([N+](=O)[O-])c1NC(=O)COC(=O)c1nc2nccc(C)n2n1
11%	CCCCNC(=O)c1cc(-c2ccc(OC)c(OC)c2)on1
0%	CCOC(=O)[C@@H]1[C@H]2COc3ccccc3[C@H]2N2C(=O)N(c3ccc(Cl)cc3)C(=O)[C@@]12C
-15%	CCOC(=O)c1ccc(S(=O)(=O)NC2CCC(C)CC2)cc1 (configuration not stated)
23%	CCOC(=O)C1=C(COC(=O)/C=C/c2ccccc2F)NC(=O)NC1C (configuration not stated)
-9%	O=C(COC(=O)C1(c2ccc(F)cc2)CCCC1)Nc1ncc(C(F)(F)F)cc1Cl
5%	O=C(O)CCc1ccc(S(=O)(=O)N2CCOCC2)cc1
?	CCCCC(=O)NC(Nc1sc2c(c1C(N)=O)CCCC2)(C(=O)OCC)C(F)(F)F (configuration not stated)
13%	CC(=O)NC(Cc1cccc(F)c1)C(=O)NC1CCN(C(=O)c2cccc(C)c2)CC1 (configuration not stated)

Sorted by molar mass (highest first): three of the compounds above.
VDR inhibitor	structure
13%	CC(=O)NC(Cc1cccc(F)c1)C(=O)NC1CCN(C(=O)c2cccc(C)c2)CC1 (configuration not stated)
23%	CCOC(=O)C1=C(COC(=O)/C=C/c2ccccc2F)NC(=O)NC1C (configuration not stated)
-15%	CCOC(=O)c1nc(-c2ccccc2)sc1C(C)=O

Further compounds
VDR inhibitor	structure
8%	CCc1cccc2[nH]c3cc([N+](=O)[O-])ccc3c12
-1%	CCc1nnc(NC(=O)CN2CCC(O)(c3ccccc3OC)CC2)s1
-6%	CCOC(=O)c1ccc(CNC(=O)CSc2nc(NC(=O)c3ccccc3)c3c(C)c(C)oc3n2)cc1
10%	COc1ccccc1NC(=O)Cn1nc(-c2ccc(C)cc2)c2c(c1=O)CCCC2
28%	COc1ccc(-n2c(Cc3cccs3)nnc2SCC(=O)Nc2ccc3c(c2)OCCO3)cc1
1%	CCOC(=O)N1CCC(O)(c2cc(C)c(C)cc2C)CC1
12%	Cc1noc(C)c1C(=O)Nc1sc(C)c(-c2ccccc2)c1C#N
-1%	CC1Cc2cc(S(=O)(=O)N3CCC(C(=O)N(C)Cc4ccco4)CC3)ccc2N1C(=O)C1CCC1 (configuration not stated)
-8%	O=C(CN1C(=O)NC2(CCc3ccccc3C2)C1=O)Nc1ccc(F)cc1 (configuration not stated)
8%	O=C(c1cccc(NS(=O)(=O)c2ccccc2)c1)N1CCCCC1
-8%	CCOc1ccc(CCNC(=O)c2cnccn2)cc1OCC
3%	O=C(CNc1ccc(F)cc1)N/N=C1\CCCc2ccccc21
-5%	COc1cccc(NC(=O)COC(=O)c2sccc2C)c1
4%	Cc1ccccc1C(=O)NC1CCCN(Cc2ccccc2F)C1 (configuration not stated)
-23%	CCN(CC(=O)NCc1cccs1)C(=O)CCCOc1ccccc1
-14%	CC(Nc1cc(N2CCCC2)ccc1[N+](=O)[O-])c1ccccc1 (configuration not stated)

Some values from the entries so far.
Result for COc1cccc(NC(=O)COC(=O)c2sccc2C)c1 in VDR inhibitor: -5%
Result for CCN(CC(=O)NCc1cccs1)C(=O)CCCOc1ccccc1 in VDR inhibitor: -23%

Next part.
VDR inhibitor	structure
35%[activator]	C=CCNC(=S)NNc1nc2c(c(=O)[nH]1)C1(CCCCC1)Cc1ccccc1-2
-19%	Cn1c(NC(=O)c2ccccc2C(F)(F)F)cc(=O)n(C)c1=O
-9%	CCn1nc(C)c(CNC(=O)C2CCC(=O)N(CCc3ccc(OC)cc3)C2)c1C (configuration not stated)
-14%	O=C1C(CCCNC(=S)NCc2ccccc2)NC(=S)N1Cc1ccccc1 (configuration not stated)
10%	Cc1ccc2c(c1)N(C(=O)N1CCC(C(=O)NCc3cccc(Br)c3)CC1)CCO2
3%	CCc1ccc(Nc2nnc(SCC(=O)NCCN3C(=O)CSC3=O)s2)cc1
-2%	COc1ccc(N2CCN(C(=O)COC(=O)c3ccc(-n4nc(C)cc4C)cc3)CC2)cc1
-5%	Cc1ccccc1Nc1nc(N)nc(COC(=O)c2ccc([N+](=O)[O-])o2)n1
-14%&-9%	Cc1nn(Cc2ccc(F)cc2)c(C)c1NC(=O)c1noc2c1CCc1ccccc1-2
7%	Nc1nc(SCc2ccc(Br)cc2)[nH]c(=O)c1-c1ccccc1
25µM*	Cc1ccc(-n2c(N)c(C(=O)N3CCN(C)CC3)sc2=S)cc1
8%	COc1cccc(CSc2nc3n(n2)C(c2ccc(C(=O)O)cc2)C(C(=O)Nc2ccccc2)=C(C)N3)c1 (configuration not stated)
-8%	Cc1ccccc1-n1ncc2c1CC(C)(C)CC2NC(=O)CSc1ccncc1 (configuration not stated)
-1%	N#C/C(C(=O)N1CCCCC1)=C1/N=C(NC(=O)c2ccc(F)cc2)c2ccccc21
-2%	CCOc1ccc(N=c2oc3cc(O)ccc3cc2C(=O)NCC2CCCO2)cc1 (configuration not stated)
8%	COc1ccc(N2CCN(CCNC(=O)c3nnc(Cc4c(F)cccc4Cl)o3)CC2)cc1
-5%	COc1c(C)c2c(c(O)c1CC=C(C)CCC(=O)OCCN1CCOCC1)C(=O)OC2
-7%	O=C1CN(C(=O)CSc2ccccn2)c2ccccc2N1
12%	COc1ccc(O)c(/C=N/N2CCCCC2)c1
-8%	COc1ccc(-c2nc(N)n(S(=O)(=O)c3ccc(C)cc3)n2)cc1
3%	CC(C)C(c1nnnn1C1CCCCC1)N1CCN(C(=O)c2ccco2)CC1 (configuration not stated)
-3%	COc1ccc(OC)c(NC(=O)c2cc3oc4ccccc4c3cc2O)c1
7%	Cc1ccc(C(=O)CCC2CCCCC2=O)cc1 (configuration not stated)
5%	Cc1c(NC(=O)CN2CCCC(C)C2)ccc2nsnc12 (configuration not stated)
3%	CC(C)C(=O)NCCc1nc(-c2ccccc2Cl)no1
2%	O=C(COc1ccc([N+](=O)[O-])cc1)NNC(=O)Nc1ccccc1F
-9%	Cc1ccc(NC(=S)NNC(=O)c2cccc([N+](=O)[O-])c2)cc1Cl
12%	CCCCN(CCCC)S(=O)(=O)c1ccc(C(=O)Nc2sc3c(c2C(N)=O)CCN(CC)C3)cc1
-24%	O=C(Nc1ccccc1)c1cc2ccccc2[nH]1
7%	CCOc1ccc(CNC(=O)CC(C)n2nc(C)cc2C)cc1OC (configuration not stated)
-12%	COc1cc2[nH]c(=O)n(Cc3ccc(C(=O)N4CCN(c5cc(Cl)ccc5C)CC4)cc3)c(=O)c2cc1OC
-9%&-14%	O=C(NCC1CC1)C1(C(F)(F)F)CC(CCc2ccccc2)CCCO1 (configuration not stated)
12%	COc1ccccc1-c1noc(-c2ccc(NCC3CCCO3)c([N+](=O)[O-])c2)n1 (configuration not stated)
-1%	CCN(C(=O)c1ccc(C)c(Br)c1)c1ccccc1
-9%	Cc1nc(-c2ccc(S(=O)(=O)N3CCN(c4cccc(Cl)c4)CC3)cc2)co1
4%	O=C(O)c1ccccc1C(=O)NCCCCCCNC(=O)c1ccccc1C(=O)O
-12%	CN(C)C(=O)CSc1cnc2ccccc2n1
-19%	Cc1ccc(-c2ccc(CCC(=O)O)n2Cc2ccco2)cc1
3%	CCNC(=O)CSc1nc2cc([N+](=O)[O-])ccc2n1-c1cccc(C(F)(F)F)c1
0%	COc1cccc(CNCCSc2nnnn2C)c1OCc1ccccc1F
-8%	O=C1c2ccccc2NC2(CCCCC2)N1N=C1CCCCC1
7%	Cc1ccc(C(NC(=O)N2CCCC2)C(Cl)(Cl)Cl)cc1F (configuration not stated)
-2%	CC1CCN(C(=O)Cn2c(=O)oc3ccccc32)CC1
-21%	O=C(C1CCN(c2nnc(N3CCCC3=O)s2)CC1)N1CCN(c2cccc(C(F)(F)F)c2)CC1
?	CCOc1cccc(C(=O)c2ccc(O)c(O)c2O)c1
-25%	N#C/C(=C\c1cccn1-c1ccccc1)C(=O)NC1CCCCC1
29%	CCN(CC)C1CCN(C(=O)c2cc(COc3ccccc3SC)on2)C1 (configuration not stated)
2%	CC(=O)Nc1nc2c(s1)C(=O)NCC(C)(C)C2
-13%	Cc1cnc(C(=O)OC(C)C(=O)Nc2ccc3c(c2)OCCO3)cn1 (configuration not stated)
-10%	O=C(c1noc2c1CCCC2)N1CCc2c([nH]c3ccccc23)C1c1ccccn1 (configuration not stated)
7%	CCN(C(=O)COC(=O)/C(C#N)=C/c1ccc(OC)cc1)C1CCS(=O)(=O)C1 (configuration not stated)
2%	COC(=O)c1nnn(-c2nonc2N)c1CSc1nc2ccccc2o1
?	CC(C)OC(=O)C(C(=O)C(F)(F)F)c1cc(NS(=O)(=O)c2ccc3ccccc3c2)c2ccccc2c1O (configuration not stated)
-4%	O=C1C=C(c2cccc(CO)c2)C[C@@H](c2ccc(Cl)cc2)C1
?	CCOc1ccc(CNC(=O)c2ccccc2NC(=O)C2=CSCCO2)cc1
-3%	Cc1ccc(CC2C(=O)N(c3ccc(F)cc3)C(=O)C2C)cc1 (configuration not stated)

Further compounds.
VDR inhibitor	structure
-21%	COc1ccc(CNC(=O)c2csc(Cc3ccc(Cl)cc3)n2)cc1
-4%	CN(c1cccc(NC(=O)c2ccc(Cl)c(S(=O)(=O)Nc3ccccc3)c2)c1)S(C)(=O)=O
17%	COc1cc2c(cc1OC)C(COc1cc(C)cc(C)c1)N(C(=O)COc1ccccc1)CC2 (configuration not stated)
5%	CCOC(=O)N1CCN(c2c(-c3ccccc3)c3cc(Cl)ccc3[nH]c2=O)CC1
3%	Cc1cccc(C)c1Nc1c(-c2ccccn2)nc2c(C)cccn12
3%	O=C(CSc1ccccc1)NC1CCCCCC1
-5%	CCC(=O)NC(Nc1ncc(C)s1)(C(=O)OC)C(F)(F)F (configuration not stated)
22%	NCCCn1c(C(=O)c2cc(Cl)c(N)c(Cl)c2)c2ccc([N+](=O)[O-])cc2[n+]1[O-]
-25%	CCOc1ccc2nc(NC(=O)c3ccc(OCC4CCCO4)cc3)sc2c1 (configuration not stated)
140%[activator]	Cc1cccc(OCC(=O)N(C)CCc2ccccn2)c1
11%	CCOC(=O)COc1c(Br)cc(C2NC(=O)NC(C)=C2C(C)=O)cc1OC (configuration not stated)
-11%	O=C(C[C@@H]1C/C=C\CCC(=O)OC[C@@H]2CCCN2C1=O)N[C@@H](CO)Cc1ccccc1
-15%	COc1ccccc1C(=O)NCCC(=O)NCc1ccncc1
10%	COc1cccc(CNC(=O)c2cc(Sc3cccc(Cl)c3)nc3ccccc23)c1
1%	COc1ccc(CCN(C(=O)COc2ccccc2)c2nc(-c3ccccc3)cs2)cc1OC
-10%	N#Cc1ccccc1NC(=O)CN1CCN(Cc2ccccc2)CC1
1%	O=C(N/N=C/C(Br)=C/c1ccccc1)c1cccnc1
2%	N=C1C(c2nc3ccccc3s2)=C(O)CN1c1ccccc1
?	CC1(OC(=O)c2cccs2)C(=O)C=C2C=C3CCCN3C=C2C1=O (configuration not stated)
-9%	Cn1cc([N+](=O)[O-])c(C(=O)Nc2sc3c(c2C#N)CCC3)n1
9%	COc1cc2ccccc2cc1C(=O)Nc1ccccc1C
-17%	CC1CCCCC1NC(=O)Cn1cnc2ccccc2c1=O (configuration not stated)
-2%	CCCCN(CCCC)S(=O)(=O)c1ccc(NC(=O)Cc2cccs2)cc1
-2%	COC(=O)Nc1nn(-c2ccc(OC)cc2)c(=O)c(C#N)c1C
-25%	COc1cc(OC)c(OC)cc1/C=N/Nc1nc2ccccc2[nH]1
-5%	COc1ccc([N+](=O)[O-])cc1NC(=O)Cc1ccccc1Cl
8%	Cc1ccc(S(=O)(=O)CCSc2nc(C)cc(C)c2C#N)cc1
2%	O=C(COc1ccc([N+](=O)[O-])cc1Cl)N1CCOCC1
-10%	Cc1cc(=O)oc2c3c(cc(OCC(=O)NCCN4CCOCC4)c12)OC(C)(C)CC3
1%&-14%	CC1=C(C(=O)NCc2ccc(Cl)cc2)C2(CCC(C)CC2)OC1=O (configuration not stated)

Filtered by structure, those above containing a nitro group on carbon
VDR inhibitor	structure
-18%	COc1ccc(OCC(=O)NNC(=S)NC(=O)c2ccc([N+](=O)[O-])cc2)cc1
2%	Cc1cccc([N+](=O)[O-])c1NC(=O)COC(=O)c1nc2nccc(C)n2n1
8%	CCc1cccc2[nH]c3cc([N+](=O)[O-])ccc3c12
-14%	CC(Nc1cc(N2CCCC2)ccc1[N+](=O)[O-])c1ccccc1 (configuration not stated)
-5%	Cc1ccccc1Nc1nc(N)nc(COC(=O)c2ccc([N+](=O)[O-])o2)n1
2%	O=C(COc1ccc([N+](=O)[O-])cc1)NNC(=O)Nc1ccccc1F
-9%	Cc1ccc(NC(=S)NNC(=O)c2cccc([N+](=O)[O-])c2)cc1Cl
12%	COc1ccccc1-c1noc(-c2ccc(NCC3CCCO3)c([N+](=O)[O-])c2)n1 (configuration not stated)
3%	CCNC(=O)CSc1nc2cc([N+](=O)[O-])ccc2n1-c1cccc(C(F)(F)F)c1
22%	NCCCn1c(C(=O)c2cc(Cl)c(N)c(Cl)c2)c2ccc([N+](=O)[O-])cc2[n+]1[O-]
-9%	Cn1cc([N+](=O)[O-])c(C(=O)Nc2sc3c(c2C#N)CCC3)n1
-5%	COc1ccc([N+](=O)[O-])cc1NC(=O)Cc1ccccc1Cl
2%	O=C(COc1ccc([N+](=O)[O-])cc1Cl)N1CCOCC1

Some of the compounds tested; the hit share may differ from the screen's.
